Screens deposited in PubChem BioAssay by Johns Hopkins Ion Channel Center.
KCNQ2 enhance: potentiators of rat KCNQ2 potassium channel; 310,000 tested, 0.54% active; CHO-K1 KCNQ2, FluxOR thallium flux fluorescence; active compounds read high; B-score at 10 µM;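 active = fluorescence ratio B-score at least 3 SD of library B-scores, with initial fluorescence B-score within 3 SD, cut at about 5.3 in these data; same plate scores as AID 2156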;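 note: B-score of peak minus minimum over baseline fluorescence ratio after K+ and Tl+ stimulus; positive B-score means potentiation of KCNQ2 with more thallium influx and brighter signal; only the inactives scoring about 0 or higher are listed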
Target sequence (O88943 whole entry, looked up): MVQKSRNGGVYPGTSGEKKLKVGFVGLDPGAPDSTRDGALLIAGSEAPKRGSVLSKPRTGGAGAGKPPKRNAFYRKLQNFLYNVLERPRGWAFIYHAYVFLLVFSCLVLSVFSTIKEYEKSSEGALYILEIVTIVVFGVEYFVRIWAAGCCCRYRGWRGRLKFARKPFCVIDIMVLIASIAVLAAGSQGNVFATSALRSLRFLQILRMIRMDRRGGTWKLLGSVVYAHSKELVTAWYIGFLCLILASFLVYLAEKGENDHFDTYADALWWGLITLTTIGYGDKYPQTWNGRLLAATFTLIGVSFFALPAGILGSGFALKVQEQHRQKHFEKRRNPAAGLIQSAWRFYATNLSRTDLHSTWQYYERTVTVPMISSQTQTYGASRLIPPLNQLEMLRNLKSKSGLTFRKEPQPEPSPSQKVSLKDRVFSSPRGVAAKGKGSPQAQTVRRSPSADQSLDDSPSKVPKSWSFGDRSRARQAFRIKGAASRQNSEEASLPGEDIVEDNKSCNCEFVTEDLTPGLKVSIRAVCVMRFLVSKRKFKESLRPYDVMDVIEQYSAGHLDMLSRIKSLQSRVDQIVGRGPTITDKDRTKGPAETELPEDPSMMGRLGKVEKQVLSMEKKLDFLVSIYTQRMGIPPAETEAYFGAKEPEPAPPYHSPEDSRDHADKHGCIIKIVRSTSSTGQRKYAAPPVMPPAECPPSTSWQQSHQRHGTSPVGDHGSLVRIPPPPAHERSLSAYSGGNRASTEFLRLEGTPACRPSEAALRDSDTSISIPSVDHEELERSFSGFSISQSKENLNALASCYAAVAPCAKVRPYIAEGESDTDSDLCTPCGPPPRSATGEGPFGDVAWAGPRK
KCNQ2 enhance baseline: further read-out of KCNQ2 enhance, marked with its call; B-score; compound at 10 µM; measured here: initial fluorescence intensity artifact check;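 brightness before thallium and not channel activity; 0 = typical well and far values either way flag optical interference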
* marks the source's active call; other numbers are inactive results. The list is partial; rates above refer to the full screens.

KCNQ2 enhance	KCNQ2 enhance baseline	Molecule
0.17	1.4	COc1ccccc1CP(=O)(c1ccccc1)c1ccccc1
0.6	-1.2	C/C(=N\NC(=O)CCC(=O)NCc1ccccc1)c1ccco1
1.6	-0.48	COc1ccc(N2CCN(C(=O)CNC(=O)Cn3c(C)cc4ccccc4c3=O)CC2)cc1
0.02	-1.9	CCN(CC)C(=S)SCC(=O)c1c(C)[nH]c2ccccc12
0.81	0.92	COc1ccc(C(=O)Nc2ccccc2C(=O)N2CCCCCC2)cc1OC
0.29	0.07	COc1ccc(OC)c(CNC(=O)CCn2nc(C)c3c(C)n(-c4ccccc4)nc3c2=O)c1
0.78	0.47	Brc1c(CSc2nncc3ccccc23)nc2ccccn12
2.2	-0.48	Cc1ccc(-c2noc(CCCC(=O)Nc3cccnc3)n2)cc1
0.66	-0.54	Cc1cc(N2CCN(C)CC2)nc2ccc(NC(=O)CCC(=O)NCc3ccco3)cc12
0.43	-0.52	Nn1c(SCC(=O)NC2CCCc3ccccc32)nnc1-c1cccs1 (stereo not given)
0.31	0.94	CC1Cc2ccccc2N1C(=O)COC(=O)c1ccc(S(=O)(=O)N(C)C)cc1 (stereo not given)
0.61	-2.7	COc1ccc(CCNC(=O)C2CC(=O)N(c3ccccc3)C2)cc1OC (stereo not given)
0.59	0.17	O=C(Nc1nnc(C2CC2)s1)c1cccc(S(=O)(=O)N2CC(c3ccccc3)CC2=O)c1 (stereo not given)
0.57	-4.2	Cc1ccc(NC(=O)Cn2c(=S)[nH]c3ccccc32)cc1
1.2	1.2	COC(=O)c1cn[nH]c1NC(=S)Nc1ccc(C)cc1Cl
0.65	-0.44	CC(C)c1c(C#N)c(N)nc(SCC(=O)c2cc3ccccc3oc2=O)c1C#N
1.5	-0.52	C=CCn1c(Br)nc2c1c(=O)n(C)c(=O)n2C
1.8	0.85	CN1CCN(NC(=O)NC2CCCCC2)CC1
1.1	-0.51	CCOc1ccc(NC(=O)Cc2c(O)c3ccccc3[nH]c2=O)cc1
0.77	0.53	Cc1ccc(S(=O)(=O)Nc2ccc(-c3ccc4nncn4n3)cc2)cc1
1.5	0.14	CCOc1ccc(N2C(=O)CC(N3CC(C)OC(C)C3)C2=O)cc1 (stereo not given)
0.27	-2.7	COc1cc(N2CN=c3s/c(=C\c4ccccn4)c(=O)n3C2)cc(OC)c1OC
1	0.21	COCc1nc(-c2cc(OC)c(OC)c(OC)c2)no1
1.8	0.73	Cc1c(CCO)c(=O)oc2n[nH]c(-c3ccccc3)c12

Structural class: the compounds so far with four or more nitrogen atoms.
KCNQ2 enhance	KCNQ2 enhance baseline	Molecule
1.6	-0.48	COc1ccc(N2CCN(C(=O)CNC(=O)Cn3c(C)cc4ccccc4c3=O)CC2)cc1
0.29	0.07	COc1ccc(OC)c(CNC(=O)CCn2nc(C)c3c(C)n(-c4ccccc4)nc3c2=O)c1
0.78	0.47	Brc1c(CSc2nncc3ccccc23)nc2ccccn12
2.2	-0.48	Cc1ccc(-c2noc(CCCC(=O)Nc3cccnc3)n2)cc1
0.66	-0.54	Cc1cc(N2CCN(C)CC2)nc2ccc(NC(=O)CCC(=O)NCc3ccco3)cc12
0.43	-0.52	Nn1c(SCC(=O)NC2CCCc3ccccc32)nnc1-c1cccs1 (stereo not given)
0.59	0.17	O=C(Nc1nnc(C2CC2)s1)c1cccc(S(=O)(=O)N2CC(c3ccccc3)CC2=O)c1 (stereo not given)
1.2	1.2	COC(=O)c1cn[nH]c1NC(=S)Nc1ccc(C)cc1Cl
0.65	-0.44	CC(C)c1c(C#N)c(N)nc(SCC(=O)c2cc3ccccc3oc2=O)c1C#N
1.5	-0.52	C=CCn1c(Br)nc2c1c(=O)n(C)c(=O)n2C
1.8	0.85	CN1CCN(NC(=O)NC2CCCCC2)CC1
0.77	0.53	Cc1ccc(S(=O)(=O)Nc2ccc(-c3ccc4nncn4n3)cc2)cc1
0.27	-2.7	COc1cc(N2CN=c3s/c(=C\c4ccccn4)c(=O)n3C2)cc(OC)c1OC

Following part.
KCNQ2 enhance	KCNQ2 enhance baseline	Molecule
2.2	0.03	Cn1ncc(Oc2ccc([N+](=O)[O-])cc2)c(Cl)c1=O
1.5	1.7	COc1cccc(NC(=O)CN(C)C(=O)c2ccccc2OCc2c(C)noc2C)c1
0.86	0.36	CCO[C@H]1OC(C(=O)NC2CC2)=C[C@@H](C2CCCCC2)[C@@H]1CCCO
1.6	-0.76	COC(=O)c1cc(OC)c(OC)cc1NC(=S)N1CCC(C(N)=O)CC1
0.59	-0.31	O=C(CNC(=O)c1ccc2ccccc2c1)OCC(=O)N1CCN(S(=O)(=O)c2ccc3ccccc3c2)CC1
0.07	-0.97	CC(C)COC(=O)C(C#N)c1nc2ccccc2nc1N1CCN(Cc2ccc3c(c2)OCO3)CC1 (stereo not given)
1.2	-0.25	COCc1nc2ccccc2n1Cc1c(F)cccc1Cl
0.7	1.1	COc1ccc(CN(C)C(=O)CNC(=O)c2ccc(C)cc2)cc1
0.71	1.7	CS(=O)(=O)N1CCN(C2Cc3ccccc3C2)CC1
0.05	0.71	Cc1cccc(OCCNC(=O)CCc2ccccc2)c1
0.11	0.73	Cc1cc(OC(=O)c2ccccc2)n(CCC#N)n1
1.5	2.3	O=C(CN(Cc1ccc(F)cc1)C(=O)CNS(=O)(=O)c1ccccc1)NCC1CCCO1 (stereo not given)

Individual results from the list:
KCNQ2 enhance baseline result of O=C(CNC(=O)c1ccc2ccccc2c1)OCC(=O)N1CCN(S(=O)(=O)c2ccc3ccccc3c2)CC1 is entered as -0.31
KCNQ2 enhance result of CN1CCN(NC(=O)NC2CCCCC2)CC1 is entered as 1.8

Going on with the list:
KCNQ2 enhance	KCNQ2 enhance baseline	Molecule
0.3	0.65	Cc1cc(C)nc(NC(=O)CSc2nc3ccccc3o2)n1
0.49	-0.26	CCOc1ccccc1C(=O)Nc1cc(=O)n(C)c(=O)n1C
0.23	1.1	CCOc1ccc(S(=O)(=O)N2CCC(C(=O)NCc3ccccn3)CC2)cc1Cl
1.2	0.99	CN(C(=O)c1ccncc1)c1nnc(-c2ccncc2)s1
6.7*	1.9*	COC(=O)CN1C(=O)Nc2ccc(Br)cc2C1c1ccccc1 (stereo not given)
0.02	-0.04	COc1ccc(CNC(=O)c2cc(C3CC3)on2)cc1
0.16	0.9	O=C(c1ccc(Cl)cc1)c1ccc(OCC(=O)N2CCOCC2)cc1
0.65	-0.04	COc1ccccc1Nc1nnc(SCC(=O)c2cc(C)n(CC3CCCO3)c2C)s1 (stereo not given)
0.24	-1.4	COc1ccc(/C=C2/C(=N)N3N=C(CC(=O)N4CCCC4)SC3=NC2=O)cc1
2.4	-0.14	Cc1cc(C)n2nc(SCc3nnc(-c4cccs4)o3)nc2n1
0.25	-2.2	Cc1[nH]c2ccccc2c1C(=O)CN1CCCCC1C (stereo not given)
0.75	-0.81	COc1ccc(OC)c(NC(=O)Nc2ccccc2C)c1
0.01	-1.9	Cn1c(Cc2ccccc2)nnc1SCC(=O)c1ccc(Br)s1
0.05	0.99	Cc1ccccc1NC(=O)c1cn(-c2ccccc2)nc1-c1ccccc1
0.51	1.1	O=C1NC(=O)C2(COC(c3ccncc3)OC2)S1 (stereo not given)
0.78	-1.4	Cc1cc(=O)[nH]c2ccc(S(=O)(=O)NCc3ccccc3)cc12
1.5	1	O=C(O)c1ccc(S(=O)(=O)c2ccccc2)cc1
0.89	-0.12	O=C(O)c1ccc(N2Cc3ccccc3C2)cc1O
1.1	-1.6	CC(C)CC(=O)NC1(C(F)(F)F)C(=O)N(Cc2ccccc2)C2=C1C(=O)CC(C)(C)C2 (stereo not given)
1.3	1.1	Cc1ccc(SCC(=O)N2CCOCC2)cc1
1.1	0	Nc1nc(N2CCCCC2)nc2ccccc12
1.7	-0.86	C/C(CC(=O)NC(C)C)=N\NC(=O)COc1cc(C)c(Br)cc1Br
1.9	-2.3	O=C(CSC1=NS(=O)(=O)c2cc(F)ccc2N1)Nc1ccccc1F
2.3	-1.8	CCOC(=O)C1CCCN(C(=S)NC2CCCC2)C1 (stereo not given)
0.19	2	CN(Cc1ccccc1)C(=O)c1nc2ccccn2c1CN1CCC(N2CCOCC2)CC1
0.04	0.57	Cc1ccc(C)c(C(=O)COC(=O)c2cccc(N3C(=O)c4c(C)nc5ccccc5c4C3=O)c2)c1
1.3	1.3	CC(=O)c1ccc(OCc2cc(C(=O)N(C)Cc3ccccn3)no2)cc1
0.68	0.38	CC(C)[C@H]1COCCS(=O)(=O)N1Cc1cccc(Cl)c1
0.8	-0.22	CCCCc1cc(=O)oc2cc(OCC(=O)N3C[C@H]4C[C@@H](C3)c3cccc(=O)n3C4)ccc12
0.29	0.8	COc1nc(Nc2ccc(C(C)=O)cc2)nc(OC)n1
0.08	-0.09	Cc1ccc(S(=O)(=O)Nc2ccccc2N2CCOCC2)cc1
0.23	-0.6	O=C(OC1CCOC1=O)c1ccc(-c2nc3ccccc3s2)s1 (stereo not given)
10*	0.03*	CCOC(=O)NC(=S)Nc1ccc(C(C)(C)C)cc1
1.8	-0.42	CCC(=O)N1CCc2cc(S(=O)(=O)N3CCN(c4ccccn4)CC3)ccc21
0.22	0.03	Brc1ccc(-c2cnc3n2CCCC3)cc1
1.4	-0.59	COCCCC1CCN(C(=O)C2CCC(=O)N(C3CCCC3)C2)CC1 (stereo not given)
1.5	0.48	COCCn1c(=N)c(S(=O)(=O)c2ccc(Br)cc2)cc2c(=O)n3ccccc3nc21
1.3	-1.1	COc1ccc(C(CC(=O)N2CCN(C)CC2)NC(=O)C(F)(F)F)cc1 (stereo not given)
0.75	-1.6	CN(C)C(=S)NC(=O)c1cccc(Cl)c1
2.1	0.17	COc1cc2oc3cc(C)oc(=O)c3c2cc1OC
0.88	0.97	Cc1ccc(NC(=O)C(CC(=O)O)C2CCCO2)c(C)c1 (stereo not given)
0.11	0	CCOc1ccc(NC(=O)CCC(=O)N2CCSc3ccccc32)cc1
0.49	0.59	COc1ccc(C(=O)N/C(=C/c2cccs2)C(=O)NN)cc1OC
0.2	0.9	COCCNC(=O)CCc1nnc(C2(c3ccc(Cl)cc3)CCC2)o1
0.84	0.48	O=C(N1CCOCC1)N1CCN(S(=O)(=O)c2ccc(Cl)cc2)C1
0.5	0.7	c1csc(-c2nc3ccccc3s2)c1
0.53	0.96	COCCCNC(=O)c1cc2c(=O)n3cccc(C)c3nc2n(C(C)C)c1=N
1.6	-1.5	CCOC(=O)c1cc(-c2csc(COc3ccc(Cl)cc3)n2)on1
1.6	-0.68	CCCCCn1c(=O)c2ccccc2n2c(=S)[nH]nc12
1.4	2.5	O=C(CN1CCCC1)Nc1ccc(F)c(Cl)c1
0.22	-0.1	CCOC(=O)C1CCCN(c2c(NCCN(C)Cc3ccccc3)c(=O)c2=O)C1 (stereo not given)
1.2	0.77	Cc1cccc2cc(CN(CC3CCCO3)C(=O)c3ccncc3)c(=O)[nH]c12 (stereo not given)
0.14	-0.24	COc1cc2c(c(O)c1OC)C(=O)C(OC)CCC2 (stereo not given)
1.5	-0.34	Cc1c(C(=O)NCC2CCCO2)sc2nc(-c3ccccc3)cn12 (stereo not given)
1.9	-0.16	CNC(=O)c1cc(C(=O)c2c(Cl)cccc2Cl)c[nH]1
0.28	0.58	CCOc1ccc(C(C)=O)cc1CSc1nnc(-c2ccoc2C)n1N
1.7	1.1	CCC1(C)Cc2c(sc(NC(=O)CCC(=O)O)c2C#N)CO1 (stereo not given)
0.47	-0.24	COc1cc(C(=O)NCC(=O)N2CCN(S(=O)(=O)c3ccccc3)CC2)cc(OC)c1OC
0.31	-0.05	CCOC(=O)N1CCc2c(sc3c2C(=O)NC(c2ccccc2)N3)C1 (stereo not given)
0.83	0.69	CC(C)CC(=O)Nc1nnc(SCC(=O)Nc2ccc(F)cc2)s1

(more compounds)
KCNQ2 enhance	KCNQ2 enhance baseline	Molecule
0.65	1.8	CCOC(=O)c1ccc(NC(=O)CSc2nc3cccnc3n2C)cc1
0.48	1.5	O=C(CNC(=O)c1ccco1)N=Nc1c(O)[nH]c2ccc(Br)cc12
1.6	-0.84	O=C(O)c1cccc(CN2C(=O)CSC2=O)c1
0.02	-1.3	COc1ccc(-c2cn(-c3ccc(C)cc3)c(=O)n2CC(=O)Nc2ccc(OC)c(OC)c2)cc1
1.2	-0.11	CC(C)CN(C(=O)c1ccc(=O)n(C)n1)c1nc2ccccc2s1
1.6	-0.46	Cc1ccc(N(CC(=O)NCc2ccccc2)C(=O)c2csnn2)cc1
0.3	-1.2	CCSc1nnc2n(-c3ccc(OC)cc3)c(=O)c3c4c(sc3n12)CCCC4
0.07	0.45	Cc1cc(C)nc(Nc2ccc(N3CCCC3)cc2)n1
0.39	-1.4	COc1ccccc1CC(=O)Nc1ccon1
1.2	-0.03	CC(Sc1cccc[n+]1[O-])C(=O)Nc1cccc([N+](=O)[O-])c1 (stereo not given)
0.6	-0.8	CCCC(=O)Nc1sc2c(c1C#N)CC(C)(C)NC2(C)C
0.62	-1.4	CC1S/C(=N/N=C/c2cccs2)NC1=O (stereo not given)
0.04	-0.81	CCN(CC)S(=O)(=O)c1cccc(C(=O)N/N=C/c2c(C)nn(-c3ccccc3)c2Cl)c1
1.5	-0.11	CC1CCCCN1S(=O)(=O)c1coc(C(N)=O)c1 (stereo not given)
0.39	-0.38	Cc1onc(-c2c(Cl)cccc2Cl)c1C(=O)N=S(C)(=O)c1ccccc1 (stereo not given)
2	-0.85	COc1ccc(CNCC(O)COc2cccc3c2OC(C)(C)C3)cc1 (stereo not given)
2.9	0.2	CN(C)/C=C(\C#N)S(=O)(=O)c1ccccc1
2.4	1.5	O=C(CNCC1CCCO1)N1CCN(S(=O)(=O)c2ccc3ccccc3c2)CC1 (stereo not given)
0.06	0.98	CCn1cc(CN2CCC(n3nccc3NC(=O)C3CCCC3)CC2)cn1
0.63	-0.15	N#Cc1cc(-c2ccccc2)oc1/N=C/c1ccccc1O
0.24	1.1	S=c1[nH]nc(-c2ccccc2Cl)n1CC1CCCO1 (stereo not given)
